Assay outcomes from PubChem BioAssay.
Rce1 inh: yeast Ras-converting enzyme inhibition | AID 2563 | Q03530 | yeast membranes, quenched prenylated peptide cleavage fluorescence | 290,000 tested, 0.27% active | calls only;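 active = fall in fluorescence gain of 50% or more versus controls, with final raw signal at or below 3038400; inconclusive = same 50% fall but final raw signal above 3038400; inactive = fall in fluorescence gain under 50%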;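 also: plate controls were neutral control wells for no effect and wells lacking membranes for full effect; tested at 10 µM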
Target sequence (Q03530 whole entry, looked up): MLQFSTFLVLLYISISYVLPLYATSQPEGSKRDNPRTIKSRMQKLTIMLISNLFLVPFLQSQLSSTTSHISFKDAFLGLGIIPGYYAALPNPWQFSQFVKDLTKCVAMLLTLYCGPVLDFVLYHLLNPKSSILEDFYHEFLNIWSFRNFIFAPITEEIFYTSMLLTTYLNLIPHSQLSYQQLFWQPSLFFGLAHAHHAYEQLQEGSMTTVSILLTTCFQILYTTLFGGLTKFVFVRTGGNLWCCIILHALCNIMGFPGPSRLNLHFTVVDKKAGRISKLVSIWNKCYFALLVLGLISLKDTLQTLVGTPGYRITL
PABP polyA inh: blocks human PABP binding to poly(A) RNA; P11940; fluorescence polarization; inhibition, % at 35 µM; 290,000 tested, 1% active;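 active = 50% or more with normal probe brightness, or confirmed in later tests; inconclusive = above 50% with abnormal brightness, or retests that disagree; inactive = below 50% or failed in later tests; about a fifth of its hits are not listed in these tables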;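 also: calls also rest on retests at 20 µM and on dose response follow-up; controls were probe without protein and protein plus probe with vehicle; some compounds called inactive have numbers as strong as hits; many hits fall short of the cut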
HIV Env fusion: blocks HIV Env-driven cell-cell fusion; HeLa-JRFL Env/CEM21 cell fusion, luciferase; inhibition, % at 12.3 µM; 360,000 tested, 1.1% active; AID 651610;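 active = mean replicate inhibition score of at least 50 and every replicate individually at or above 50; inconclusive = only one of the two criteria met; inactive = mean below 50 and not all replicates reaching 50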;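 also: 0% = plate neutral controls and 100% = maraviroc near 300 nM; one replicate is shown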
MT1-MMP act inh: MT1-MMP (human) activation inhibition; P50281; HT1080 RFP-PRO-GFP cells, GFP/RFP ratio fluorescence, overnight; percent of plate control window, DMSO zero; GFP/RFP ratio change, % at 20 µM; 360,000 tested, 0.061% active; AID 651647;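 active = GFP/RFP ratio change of at least 30% with cell ATP level not reduced by more than half and red fluorescence within 50% of control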; also: strong numbers were not always called active
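Material – HT1080 RFP-PRO-GFP cells · Control set – DMSO wells and RFP-L50D-GFP cells · Incubation – overnight cell settling, then overnight compound exposure, 37 °C, 5% CO2 · Compound dosing – single-point 20 µM compound, 1% DMSO · Read-out – GFP/RFP fluorescence ratio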
eIF4H inh: inhibitors of RNA binding by human eIF4H. Q15056. eIF4H fluorescence polarization binding assay. inhibition, % at 35 µM. 290,000 tested, 0.94% active. AID 2012;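 active = 50% or more with normal probe brightness, or confirmed in later tests; inconclusive = above 50% with abnormal brightness, or retests that disagree; inactive = below 50% or failed in later tests; about a fifth of its hits are not listed in these tables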;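 also: calls also rest on retests at 20 µM and on dose response follow-up; 0% = protein and probe with vehicle and 100% = probe without protein; strong numbers were not always called active; many hits fall short of the cut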
Yeast UUG start: yeast start codon fidelity modulation. S. cerevisiae UUG-firefly luciferase reporter, luminescence/redox ratio. activity score, % at 18.7 µM. 350,000 tested, 0.13% active;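 active = replicate mean at a twofold rise or more, about +100% in these data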;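 also: firefly luciferase made from a UUG start codon reports start codon fidelity; reporter light over untreated wells divided by growth signal over untreated wells; some hits fall short of that in this replicate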
CSC inhib: blocks cancer stem cells; cancer stem cell-like cells viability, luminescence; AID 2717; inhibition, % at 7.5 µM; 300,000 tested, 1.1% active;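 active = mean at 75% or more and at least half the replicates too; inconclusive = mean and replicates disagree; tested in HMLE shEcad cells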;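 also: 0% = median of negative and 100% = median of positive control wells; the first replicate is given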
MT1-MMP act inh RFP: further read-out of MT1-MMP act inh, marked with its call; RFP signal change, %; measured here: RFP expression control read;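 0 = vehicle wells; hits needed this value within 50% of zero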
* hit, by the source's call; i = inactive; ? = inconclusive; . = no result given; & = joins results of further samples. Some of the compounds tested; count on the stated rates, not on these rows.

Values run as follows: Rce1 inh, PABP polyA inh, HIV Env fusion, MT1-MMP act inh, MT1-MMP act inh RFP, eIF4H inh, Yeast UUG start, CSC inhib
CN(C)Cc1c(C(=O)N/N=C/CCc2ccccc2)nnn1-c1nonc1N
    i, 6, -3, 1, 3, 11, -13, .
COC(=O)c1ccc(CNC(=O)C2CCC(=O)N(CCc3ccccc3)C2)cc1 (stereo not given)
    i, -4, -2, -2, -3, -2, -14, -2
Cc1ccc(NC(=O)c2oc3ccccc3c2C)c([N+](=O)[O-])c1
    i, -1, -32, 0, 1, 6, ., -9
COc1ccc(NC(=O)CSC2=NN3CCCC(=O)N=C3S2)c(OC)c1
    i, 1, 1, ., ., -2, -4, -15
NCC(c1ccccc1)c1c[nH]c2ccccc12 (stereo not given)
    i, 3, 2, 0, -1, 2, -7, -5
COC(=O)CCCC(=O)N1CCCC(CCC(=O)NCc2ccc(F)c(F)c2)C1 (stereo not given)
    i, -2, 1, 5, -3, 4, ., -5
CC(=O)N1CCc2[nH]c3ccccc3c2C1
    i, -6, -32, -2, 1, -7, -4, -12
CCC1CN(C(=O)N2CCC(C(=O)Nc3ccccc3OC)CC2)c2ccccc2O1 (stereo not given)
    i, 11, -2, 0, 0, -3, -7, -4
Cc1cc2c(ncn2C(C)C)c(NS(=O)(=O)c2ccc(F)cc2)c1C
    i, 10, -34, -4, -4, 11, ., -7
Cc1cc(=O)n2nc(N3CCCC(C(=O)NCc4ccc(Cl)cc4)C3)sc2n1 (stereo not given)
    i, 0, -3, 1, 4, 4, -10, -2
CC(C)(C)C(=O)NC(n1cnc2c(N3CCOCC3)ncnc21)C(Cl)(Cl)Cl (stereo not given)
    i, 2, 19, 2, 3, -1, 2, -10
COc1cc(C(C)=O)ccc1Oc1ncnc2c1cnn2-c1ccc(C)c(C)c1
    i, 7, -40, -5, -17, 1, -7, 18
COc1ccc(Br)c2oc(SC)cc(=O)c12
    i, -8, -58, -1, 1, 1, 0, -4
COc1ccccc1NS(=O)(=O)c1ccc(Cl)c(NC(=O)C(C)N2C(=O)c3ccccc3C2=O)c1 (stereo not given)
    i, 0, -25, -3, 1, -1, -9, -7
COc1ccc(C2c3[nH]c4ccccc4c3C[C@H]3C(=O)N(c4ccccc4C(=O)N4CCC[C@H]4C(=O)O)C(=O)N23)cc1 (stereo not given in full)
    i, 2, ., -2, 6, 20, -1, -3
Cc1ccc(O)c(CNc2nc3ccccc3n2C(C)C)c1
    i, 5, -7, 7, -2, 6, -16, -3
COC(=O)c1cn(C(=O)c2cc(OC)c(OC)c(OC)c2)c2ccccc12
    i, 20, -7, 6, 1, 5, -13, 23
CCN(CC)c1ccc(NC(=O)c2ccc3c(c2)c(C)c(C)n3C)cc1
    i, 16, -53, 4, -10, 41, ., 2
CCOC(=O)C1CCN(C(=O)CN(c2ccc(Oc3ccccc3)cc2)S(C)(=O)=O)CC1
    i, -10, 27, 0, -5, -6, 12, -4
CN(C(=O)COC(=O)Cc1c(Cl)cccc1Cl)C1CCS(=O)(=O)C1 (stereo not given)
    ., ., 0, 3, 0, ., 0, .

The list goes on (three carried over from the part before).
Values run as follows: Rce1 inh, PABP polyA inh, HIV Env fusion, MT1-MMP act inh, MT1-MMP act inh RFP, eIF4H inh, Yeast UUG start, CSC inhib
CCN(CC)c1ccc(NC(=O)c2ccc3c(c2)c(C)c(C)n3C)cc1
    i, 16, -53, 4, -10, 41, ., 2
CCOC(=O)C1CCN(C(=O)CN(c2ccc(Oc3ccccc3)cc2)S(C)(=O)=O)CC1
    i, -10, 27, 0, -5, -6, 12, -4
CN(C(=O)COC(=O)Cc1c(Cl)cccc1Cl)C1CCS(=O)(=O)C1 (stereo not given)
    ., ., 0, 3, 0, ., 0, .
Nc1cccnc1-n1nc(C(F)(F)F)cc1C(F)(F)F
    i, 6, -10, 2, 3, 5, 5, -14
O=C(O)CN(c1ccccn1)S(=O)(=O)c1ccc(Cl)cc1
    i, 15, -162, -13, -5, -16, -5, .
CCOC(=O)c1oc2ccccc2c1NC(=O)c1ccco1
    i, -10, 12, -3, 1, -18, -23, 17
COc1ccc(Oc2cn[nH]c2-c2ccc(OC)cc2O)cc1
    i, 7, 5, 4, -1, -7, -3, 9
CCOc1ncccc1C(=O)OCc1c(F)cccc1Cl
    i, ?, -27, -4, -4, 9, 0, .
CN(CC(=O)Nc1cccc(F)c1)C(=O)c1ccccc1Cc1ccccc1
    i, ., 16, 2, -4, ., ., 16
O=C(CSc1ccc(-c2ccccn2)nn1)N1CCCCC1
    i, 4, -3, 1, 4, 7, ., 3
CCOc1ccccc1NC(=O)CCCCCN1C(=O)[C@@H]2Cc3ccccc3CN2C1=O
    i, -7, 16, 3, -3, 6, ., -7
COc1cccc(OCc2cc(C(=O)N(Cc3ccccc3)CC3CC3)no2)c1
    i, -15, 11, 1, -3, -12, 1, 16
CCCCSc1nc2sc3c(c2c(=O)n1-c1ccccc1)CCN(C)C3
    i, -9, 20, -4, -4, -7, 0, -11
Clc1cccc(Cc2c(-c3ccccc3)nc3c4ccccc4ccn23)c1
    ., ., 0, -3, 0, ., 17, .
O=C(Nc1ccc(O)cc1)N1CCOCC1
    i, -4, 8, 1, 5, -2, 7, -14
CCCCNC(=O)c1[nH]c(C)c(C(C)=O)c1C
    i, -8, 9, 2, 4, 0, ., -1
CCOC(=O)c1c(NC(=O)CC2SC(N)=NC2=O)sc2c1CCC(C)C2 (stereo not given)
    i, 6, 3, -3, -5, -2, -15, .
O=C(c1cc(C(=O)c2ccco2)cc(C(=O)c2ccco2)c1)c1ccco1
    ., 0, -1, -7, -3, 11, ., 3
CN1C(=O)/C(=C/c2ccccc2Cl)Sc2ccc(C(=O)NCc3cccnc3)cc21
    i, 14, 7, 3, -12, 6, -8, -6
NC1=NC2CS(=O)(=O)CC2S1 (stereo not given)
    i, 11, 8, 1, 0, -5, -9, -2
CCCCN1C(=N)N([C@@H](C)CN2CCC[C@H]2CN2C(N)=NC[C@@H]2Cc2ccccc2)C[C@H]1Cc1ccccc1
    ., ., 4, -1, 6, ., -10, 1
Cc1noc(C)c1NC(=O)N(C)C[C@@H]1OCc2cnnn2CCCC(=O)N([C@@H](C)CO)C[C@H]1C
    ., ., -29, -1, 2, ., -3&-6, .
CSc1ncccc1C(=O)OCC(=O)N(C)Cc1ccc(C)cc1
    ., ., -2, 1, 3, ., -3, .
COCCNC(=O)C1CC2Cn3c(nc4cc5ccccc5cc43)C2N1C (stereo not given)
    i, 2, 6, 1, 0, 2, -17, -7
COc1cc(-c2coc3c(C(=O)NCc4ccc(N(C)C)cc4)cccc23)ccc1O
    ., ., -2, 1, -4, ., -15, .
O=C(N/N=C/c1cccnc1)c1cccc(NC(=O)c2ccc(Cl)cc2)c1
    i, -42, ., 5, 0, -46, -14, .
CCOc1ccc(C2CC(c3ccc(CC)cc3)Nc3nc(N)nn32)cc1 (stereo not given)
    i, -6, -21, 1, 3, -6, -16, -7
COc1ccc(S(=O)(=O)N2CCN(C(=O)N(C)C)C2C)cc1 (stereo not given)
    i, -4, 4, 1, 3, -4, -20, -10
O=C(NC(=S)Nc1ncccn1)c1ccc(Cl)cc1Cl
    i, -13, -50, 1, 0, -6, ., 4
O=C(CCc1nc2ccccc2c(=O)[nH]1)NC1CCN(Cc2ccccc2)CC1
    i, 5, -13, 6, 6, 5, -14, 3
CC(=O)Cn1c(=O)c2c(nc3n2CCCN3Cc2ccccc2)n(C)c1=O
    i, -1, -3, 4, 7, -12, -12, -2
COc1ccc(NC(=O)c2cc(C3CCCCN3C(=O)C3CC3)on2)c(C)c1 (stereo not given)
    ., ., -10, 0, 1, ., 9, .
CCN1CCN(c2nc(-c3ccccn3)nc3ccccc23)CC1
    i, -2, -16, 0, -4, 2, -21, -18
COc1ccc(C(O)(C(C)C)C(CN2CCOCC2)c2ccccc2)cc1 (stereo not given)
    i, 6, 24, -3, -1, -9, 3, 7
COC(=O)Nc1ccc(OCc2ccccc2)cc1
    i, -22, ., 9, 2, -13, -12, 10
Cc1cc(Cl)c(S(=O)(=O)NCC2CCCO2)cc1OCC(N)=O (stereo not given)
    ., -8, ., -11, -2, 4, -6, -17
COc1ccc(CS(=O)(=O)CC(C)(O)c2ccc(Cl)cc2)cc1 (stereo not given)
    i, 2, 6, -4, -3, 0, 6, -12
CCN(C(=O)COC(=O)CNS(=O)(=O)c1ccc(C)cc1)C1CCS(=O)(=O)C1 (stereo not given)
    ., ., 4, -7, 0, ., -11, .
CCC(=O)N1CCN(c2ccc(NC(=O)c3ccco3)cc2)CC1
    i, 2, ., 0, -2, -7, -9, -4
O=c1c2cc(Cl)ccc2[nH]c(=S)n1Cc1cccs1
    i, 0, 15, 1, -1, 2, -11, 29
CCCCNc1c(N)n(CC(C)C)c(=O)[nH]c1=O
    i, 8, -34, -1, 6, 37, ., 5
COC(=O)c1cccc(-n2cnnn2)c1
    i, -7, -29, 1, 0, 0, -22, -13
COC(=O)n1c(=O)oc2cc(S(=O)(=O)N3CCCCC3)ccc21
    i, 1, -49, -4, -5, 0, -9, -9
Cc1ccc(Cc2c(-c3ccc(Cl)cc3)nc3ccc(Cl)cn23)cc1
    ., ., -7, -12, -8, ., -11, .
Cc1cc(=O)[nH]c(N/N=C/c2ccccn2)n1
    i, -2, -37, -5, -10, 32, ., 107*
CCc1ccc2oc(C(=O)Nc3nonc3CC)c(C)c2c1
    i, 26, -106, 1, -5, -10, -11, .
CCOc1ccc(S(=O)(=O)NC(Cc2cnc[nH]2)C(=O)O)cc1 (stereo not given)
    i, -2, 0, -2, 2, -4, ., -1
COc1ccc2c(c1)CCc1cc(C(=O)O)sc1-2
    ?, -2, 0, 9, 9, -12, 5, -1
Cc1cc(N2CCN(c3ccccn3)CC2)n2c(nc3ccccc32)c1C#N
    i, 1, 1, 3, -3, 4, 2, .
O=C(Nc1ccccc1N1CCOCC1)c1ccc2c(c1)OCO2
    i, -3, 5, -11, -4, 0, ., -10
O=C1C(=O)N(Cc2ccncc2)C(c2ccccc2F)/C1=C(\O)c1ccc2c(c1)OCCO2 (stereo not given)
    i, 10, -5, 2, 6, -9, -18, -9
Cc1noc(C)c1C(=O)NNc1cc(Cl)ccc1Cl
    i, -8, 16, -2, 5, -4, ., -11

Quoted at random: 2 entries already listed
Values run as follows: Rce1 inh, PABP polyA inh, HIV Env fusion, MT1-MMP act inh, MT1-MMP act inh RFP, eIF4H inh, Yeast UUG start, CSC inhib
Cc1ccc(Cc2c(-c3ccc(Cl)cc3)nc3ccc(Cl)cn23)cc1
    ., ., -7, -12, -8, ., -11, .
CCOc1ccc(S(=O)(=O)NC(Cc2cnc[nH]2)C(=O)O)cc1 (stereo not given)
    i, -2, 0, -2, 2, -4, ., -1

6 of the compounds above, bar-delimited.
canonical_smiles | Rce1 inh | PABP polyA inh | HIV Env fusion | MT1-MMP act inh | MT1-MMP act inh RFP | eIF4H inh | Yeast UUG start | CSC inhib
O=C(Nc1ccccc1N1CCOCC1)c1ccc2c(c1)OCO2 | i | -3 | 5 | -11 | -4 | 0 | . | -10
CCCCNc1c(N)n(CC(C)C)c(=O)[nH]c1=O | i | 8 | -34 | -1 | 6 | 37 | . | 5
CCOC(=O)c1c(NC(=O)CC2SC(N)=NC2=O)sc2c1CCC(C)C2 (stereo not given) | i | 6 | 3 | -3 | -5 | -2 | -15 | .
CCCCSc1nc2sc3c(c2c(=O)n1-c1ccccc1)CCN(C)C3 | i | -9 | 20 | -4 | -4 | -7 | 0 | -11
CCOc1ccc(C2CC(c3ccc(CC)cc3)Nc3nc(N)nn32)cc1 (stereo not given) | i | -6 | -21 | 1 | 3 | -6 | -16 | -7
CCOc1ccc(S(=O)(=O)NC(Cc2cnc[nH]2)C(=O)O)cc1 (stereo not given) | i | -2 | 0 | -2 | 2 | -4 | . | -1
